Source: PubChem
Hsc70 ATP site: Hsc70 inhibitors, probe displacement, primary screen, biochemical, fluorescence polarization (AID 568); Hsc70 fluorescence polarization, probe displacement; higher % means a stronger effect; strong numbers were not always called active; one-dose displacement, % at 20 µM; IC50 in µM for titrated hits; 83,000 tested, under 10 active;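 active means displacement above 50% without optical interference and an IC50 on retest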;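 further: ATPase domain with a fluorescein-tagged ATP probe; 0% = vehicle and 100% = excess ADP; read after one hour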
WNV NS2B-NS3 inh: WNV NS2B-NS3 proteinase inhibition; 65,000 tested, 0.18% active; WNV NS2B-NS3 protease, fluorogenic substrate Ex360/Em465; active compounds read low; P06935; z-score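 (tested at a level between 10 and 100 µM)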;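 active means z-score at -3 or under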;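 further: score is relative to mean and spread of the compound wells of a plate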
Target sequence (P06935 1371-1501 limits assumed): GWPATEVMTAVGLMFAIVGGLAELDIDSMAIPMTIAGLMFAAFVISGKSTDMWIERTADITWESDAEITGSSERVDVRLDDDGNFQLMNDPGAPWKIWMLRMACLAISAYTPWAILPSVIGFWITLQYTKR
Target sequence (P06935 1502-1679 limits assumed): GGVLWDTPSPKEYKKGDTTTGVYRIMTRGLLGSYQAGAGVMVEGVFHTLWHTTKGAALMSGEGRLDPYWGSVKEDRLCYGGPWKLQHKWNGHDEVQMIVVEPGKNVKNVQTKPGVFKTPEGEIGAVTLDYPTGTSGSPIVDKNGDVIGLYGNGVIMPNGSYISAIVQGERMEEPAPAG
MT1-MMP reporter: inhibitors of MT1-MMP promoter transcription, cell-based, luciferase reporter, luminescence (AID 618). MT1-MMP promoter luciferase reporter cells, luminescence. calls from a first round at 10 µM; hits with a dose series show EC50 in µM. 87,000 tested, 0.62% active;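 active means over half of the reporter light lost at 10 µM or EC50 under 50 µM; inactive means the rest and hits that failed the dose series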;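 further: actives suppress MT1-MMP promoter-driven transcription so potencies describe inhibitors; HT1080 fibrosarcoma cells; overnight exposure; toxic or luciferase-blocking compounds were not removed from the actives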
* marks the source's active call; other numbers are inactive results; i = inactive; . = no result given.

SMILES	Hsc70 ATP site	WNV NS2B-NS3 inh	MT1-MMP reporter
CCOC(=O)N1CCN(C(=O)CN(c2ccc(C)c(C)c2)S(=O)(=O)c2ccccc2)CC1	-1.5%	-0.48	i
CCC(C)NC(=O)c1ccccc1NS(=O)(=O)c1ccc(OC)c(OC)c1 (stereo not given)	-2.0%	1.9	i
O=C(Nc1ccc2c(c1)C(=O)N(c1ccccc1)C2=O)C1CCCO1 (stereo not given)	2.6%	.	i
O=C(NC1CCCCC1)C(c1cccs1)N(Cc1cccs1)C(=O)c1ccco1 (stereo not given)	-3.7%	-0.58	i
COc1ccc(Cn2nnnc2CN(Cc2cc3ccc(C)cc3[nH]c2=O)C2CCCC2)cc1	-2.0%	-0.91	i
Cc1cc(C(=O)Nc2ccc(N3CCOCC3)cc2)c2ccccc2n1	-2.1%	-0.0036	i
Nc1nc2c3ccccc3nc(Cc3ccccc3)n2n1	-0.9%	-0.53	i
CCN=C(Nc1ccc2c(c1)OCO2)SC1CC(=O)N(c2ccc(OC)cc2)C1=O (stereo not given)	-1.8%	.	i
Cc1occc1-c1nc(-c2ccncc2)no1	-4.0%	0.76	i
Cc1cccc(-c2noc(CCC(=O)NCc3ccccc3)n2)c1	2.2%	0.88	i
Cc1cc(C)c(C)c(OCC(=O)NCCN(C)C)c1	7.6%	-0.05	i
CCCOc1ccc(C2c3c(oc4ccccc4c3=O)C(=O)N2CCN(CC)CC)cc1OC (stereo not given)	2.8%	-0.08	i
Cc1c(NS(=O)(=O)c2cccc(C(=O)NCc3ccc(Cl)cc3)c2)c(=O)n(-c2ccccc2)n1C	-2.7%	.	i
COc1ccccc1Cn1c2nc3ccccc3nc2c2c(=O)n(CC(C)C)cnc21	-11%	0.57	i
Cc1ccc(-c2noc(C3CCN(S(C)(=O)=O)CC3)n2)o1	9.7%	2.2	i
CN1C(=S)SC(N(O)C=C2C=CC(=O)C=C2)C1(C)C (stereo not given)	5.4%	.	i
Cc1nn(CC(=O)NCC2CCCO2)c(=O)c2ccccc12 (stereo not given)	-5.1%	-0.69	i
O=C(CN1C(=O)C2(OCCO2)c2ccccc21)c1ccc(F)cc1	4.1%	-1	i
O=C(Nc1ccccc1)N(CCN1CCOCC1)Cc1cccc(Cl)c1	-12%	0.85	i
O=C(C1CCN(S(=O)(=O)Cc2ccccc2)CC1)N1CCN(c2ncccn2)CC1	0.2%	-1.1	i
O=C(O)CCC1(C(=O)O)OCCc2ccccc21 (stereo not given)	2.6%	0.2	i
Cn1c(Cn2c(=O)sc3ccccc32)nnc1SCC(=O)N1CCc2ccccc21	3.8%	-0.35	i
COc1ccc(-c2cc(C(=O)Nc3ccccc3SC)no2)cc1OC	-2.6%	0.81	i
CCN(CC)S(=O)(=O)c1ccc(NC2CCCc3ccccc32)nc1 (stereo not given)	5.8%	-0.37	i
O=C1c2ccccc2C(Nc2ccc(S(=O)(=O)N3CCCCC3)cc2)N1c1ccccn1 (stereo not given)	2.8%	0.0067	i
COC(=O)c1sccc1NC(=O)Cn1cnc2c1c(=O)n(C)c(=O)n2C	1.0%	-0.81	i
Cc1ccccc1OCc1nc(-c2ccc(NC(=O)c3ccco3)cc2)no1	-4.7%	0.39	i
Nc1ccc(C(=O)Nc2nc3ccccc3s2)cc1	0.7%	-0.3	3.5µM*
O=C(CNC1CCCCCC1)Nc1ccc(S(=O)(=O)NC2CC2)cc1	-6.6%	-0.97	i
O=C(COC(=O)c1ccccc1OCc1ccc(Cl)cc1)NC1CC1	-1.1%	.	i
CCCCCc1ccc(-c2ccc(=O)[nH]n2)cc1	-9.9%	-0.05	i
Fc1cccc(Cl)c1Cn1nnc2c(N3CCC4(CC3)OCCO4)ncnc21	-4.3%	-0.44	i
O=C(CCCCCn1c(=S)[nH]c2cc3c(cc2c1=O)OCO3)N1CCN(Cc2ccccc2)CC1	0.8%	-0.15	i
CCC(C)[C@H](NC(=O)Nc1ccc(C(C)=O)cc1)C(=O)OC (stereo not given in full)	-6.3%	-0.22	i
Cc1ccc(-n2c(C)c([N+](=O)[O-])c3ccc(O)c(CN(C)C)c32)cc1	1.6%	.	i
COc1ccc(C(=O)c2cc3ccc(O)cc3oc2=O)cc1	3.0%	.	i
CC1CCN(C(=O)C(NS(=O)(=O)c2cccc3nsnc23)c2ccccc2)CC1 (stereo not given)	1.5%	-0.45	i
CN1CCN(S(=O)(=O)c2ccc(NC(=O)Cc3cccs3)cc2)CC1	-6.0%	1.6	i
CC(C)OCCCNC(=O)c1cc2c(=O)n(C)c3ccccc3c2n1C	-2.9%	-0.2	i
CCC(c1nnc(SCC(=O)Nc2ccc(C(=O)Nc3ccccc3OC)cc2)o1)N(C)C (stereo not given)	-0.9%	0.18	i
COCCn1c(=O)c2c(nc3n2CCN3c2ccc(C)cc2)n(C)c1=O	2.0%	1.6	i
O=C(NC1CCCCC1)c1cccc(COCC(F)(F)F)c1	0.4%	.	i
O=C(COC(=O)c1n[nH]c2ccccc12)NC(=O)NC1CCCC1	3.4%	.	i
COc1ccc(-c2cc(C(=O)N3CCOCC3)no2)cc1OC	3.6%	-0.2	i
CCOC(=O)NC(=O)CSc1nnnn1-c1ccc(C)cc1	-1.9%	-0.01	i
CC1CCN(c2ccccc2NC(=S)NC(=O)c2ccc(-c3cccc([N+](=O)[O-])c3)o2)CC1	-0.2%	.	i
Cc1ccc(NC(=O)c2cccc(N3C(=O)CCC3=O)c2)nc1	-1.1%	-0.83	i
CCn1c(COc2cccc3cccnc23)nnc1SCC(=O)O	4.5%	-0.25	i
COC(=O)c1ccc(NC2=CC(=O)CC(C)(C)C2)cc1	4.4%	-1.7	i
O=C1CSC2(CCCCC2)N1CCO	-4.8%	1.6	i
COc1cccc(NC(=O)CSc2nnc(-c3ccoc3C)n2-c2ccccc2)c1	0.6%	.	i
COC(=O)CN(c1ccc(OC)cc1)S(=O)(=O)c1c(C)noc1C	-6.6%	-1.1	i
Cc1cccc(OCCn2c(=S)[nH]c3ccccc32)c1	-1.6%	.	i
COCCNC(=O)C(c1ccc(C)o1)N(Cc1ccc(OC)cc1)C(=O)Cn1nnc2ccccc21 (stereo not given)	2.7%	-0.61	i
Cc1ccc(C2N(C)c3ccccc3-c3nc4ccccc4n32)o1 (stereo not given)	-0.5%	.	i
CCC(C)C(=O)Nc1c2c(nc3c1CCC3)CCCC2 (stereo not given)	-3.7%	-0.92	i
c1coc(-c2nn3c(Cn4nnc5ccccc54)nnc3s2)c1	-4.3%	0.26	i
COc1ccc(CC(=O)Nc2ccc(-c3noc(-c4cccc(OC)c4)n3)cc2)cc1	0.6%	-1.1	i
CCOC(=O)N1CCN(C(=O)Cc2ccc(-n3c(=O)[nH]c4ccccc4c3=O)cc2)CC1	-0.5%	-0.43	i
COc1ccc2nc(SCc3nc(N)nc(Nc4ccccc4)n3)[nH]c2c1	-1.7%	1.4	i
Other structures follow:
SMILES	Hsc70 ATP site	WNV NS2B-NS3 inh	MT1-MMP reporter
CS(=O)(=O)N1CCN(c2ccccc2NC(=O)c2ccc(-c3ccc(Br)cc3)o2)CC1	-2.6%	.	i
O=C(COC(=O)c1ccc[nH]c1=O)c1ccc(Cl)s1	2.0%	0.35	i
CC(=O)Oc1cc(OC(C)=O)c2c(C)cc(=O)oc2c1	-3.1%	4.9	i
CCOC(=O)c1[nH]c(C)c(/C(O)=C2\C(=O)C(=O)N(CCCN(C)C)C2c2cccnc2)c1C (stereo not given)	-3.2%	-0.51	i
CC(C)Oc1ccc(CSc2nnc3n(C)c(=O)c4c5c(sc4n23)CCCC5)cc1	-5.4%	-0.3	i
N=c1c2c(n(Cc3cccc(Cl)c3)c3c1CCC3)CCCC2	0.1%	.	i
CCCN1CCN(C(=O)Cn2ncc3ccccc32)CC1	8.0%	-0.17	i
CN1C(=O)N(C)C2(c3ccccc3)Nn3c(s/c(=C/c4ccccc4)c3=O)=NC12c1ccccc1 (stereo not given)	2.0%	.	i
CCCc1cc(NCCCN2CCOCC2)n2c(nc3ccccc32)c1C#N	2.3%	.	i
CCC(NC(C)C)C(O)c1ccc(O)c(O)c1 (stereo not given)	-2.8%	0.31	i
O=C(Nc1nnc(CC2=CCCCC2)s1)c1cccs1	-1.0%	0.32	i
O=C(COC(=O)CCc1ccc(S(=O)(=O)N2CCOCC2)cc1)Nc1ncc(C(F)(F)F)cc1Cl	-1.7%	.	i
CCC(C)c1ccc(NC(=O)c2cccnc2)cc1 (stereo not given)	2.7%	-1.1	i
Cc1cc(OCCNCCO)cc(C)c1Cl	7.7%	-1.2	i
O=C1CCOc2cc(OCc3ccccc3)ccc21	5.1%	.	i
O=C(COC(=O)c1ccco1)Nc1nc2ccccc2s1	4.8%	-0.51	i
CC(C(=O)N1CCCc2c1c(=O)oc1ccc(O)cc21)N1CCc2ccccc2C1 (stereo not given)	1.7%	1.5	i
Cc1ccc(NC(=O)N2C(=O)C3(OCCO3)c3ccccc32)cc1	1.0%	0.88	i
O=C(O)CCCC(=O)NCCc1cccc(Cl)c1	2.0%	1.3	i
Cn1nc(CC(=O)NCc2ccc(C(F)(F)F)cc2)c2ccccc2c1=O	-4.3%	.	i
CCn1nccc1C(=O)Nc1ccc(S(=O)(=O)NC23CC4CC(CC(C4)C2)C3)cc1	-2.2%	.	i
CCOC(=O)c1[nH]c(COC(=O)CCCOc2ccccc2)c(C(=O)OCC)c1C	-10%	0.22	i
CCOC(=O)C1[C@H]2C(=O)N(C(C)c3ccc(OC)cc3)C[C@]23C=C[C@H]1O3 (stereo not given in full)	1.3%	0.95	i
CS(=O)(=O)N(CC(=O)N1CCN(Cc2ccccc2)CC1)c1ccc2c(c1)OCCO2	0.5%	.	i

Single records, as listed above. Order of screens: Hsc70 ATP site	WNV NS2B-NS3 inh	MT1-MMP reporter
CCC(C)c1ccc(NC(=O)c2cccnc2)cc1 (stereo not given) is listed with 2.7%	-1.1	i
Cc1cc(OCCNCCO)cc(C)c1Cl is listed with 7.7%	-1.2	i
O=C(COC(=O)c1ccco1)Nc1nc2ccccc2s1 is listed with 4.8%	-0.51	i
CCn1nccc1C(=O)Nc1ccc(S(=O)(=O)NC23CC4CC(CC(C4)C2)C3)cc1 is listed with -2.2%	.	i

New compounds follow
SMILES	Hsc70 ATP site	WNV NS2B-NS3 inh	MT1-MMP reporter
CCCc1nc(NCC2CCCO2)c2nnn(Cc3ccccc3)c2n1 (stereo not given)	-1.5%	.	i
O=C1C2CCCN2C(c2ccccc2)N1c1ccc(F)cc1 (stereo not given)	-5.8%	-0.62	i
Cc1[nH]c2ccccc2c(=O)c1CN1CCCCC1	-0.9%	-1	i
O=C(c1ccc(Cn2c(=O)[nH]c3ccccc3c2=O)cc1)N1CCN(c2ccccn2)CC1	-3.8%	-0.19	i
O=C(C1CCCCC1)N1CCCc2ccccc21	0.7%	.	i
COc1cccc(N2C(=O)N(c3ccccc3Cl)C3CS(=O)(=O)CC32)c1 (stereo not given)	-7.2%	0.06	i
Cc1ccc(S(=O)(=O)N2CCN(S(=O)(=O)c3ccc4c(c3)OCCO4)CC2)cc1	0.6%	-0.42	i
O=C(Nc1cnn(Cc2ccc(F)cc2)c1)c1cnccn1	5.7%	-0.38	i
COc1ccc(NC(=O)N(C2CCCCC2)C(C)c2cccnc2)c(OC)c1 (stereo not given)	48%	1.6	i
COCCNC(=O)COc1ccc(Oc2ccccc2)cc1	8.2%	.	i
Cc1cccc2[nH]c3c(=O)n(CCN4CCNCC4)cnc3c12	-6.1%	-0.93	i
Cn1c(=O)c2c(ncn2CC(=O)Nc2ccccc2Sc2ccccc2)n(C)c1=O	2.6%	-1.5	i
O=C(NC1CCCCC1)c1ccc(S(=O)(=O)N2CCCC2)cc1	-0.8%	.	i
O=C(OCC(=O)N1CCN(c2ccccc2)CC1)c1ccc2ncsc2c1	-7.1%	-0.81	i
CC1CN(C2CCN(C(=O)COc3ccc(Cl)cc3)CC2)CC(C)O1 (stereo not given)	-1.5%	.	i
Cc1ccc(C(c2nnnn2CCc2ccccc2)N2CCC(C)CC2)cc1 (stereo not given)	6.9%	.	i
OCc1ccccc1CNCc1ccccc1	2.7%	-0.37	i
COc1ccc(C(C)=O)cc1COC(=O)Cc1n[nH]c(=O)c2ccccc12	-4.7%	0.74	i
Cc1c(C)n(C(=O)CSc2nc3ccccc3[nH]2)c2ccccc12	12%	.	i
COc1cccc(NC(=O)CC2(CC(=O)O)CCCC2)c1	-2.0%	-0.25	i

Individual results from above.
COCCn1c(=O)c2c(nc3n2CCN3c2ccc(C)cc2)n(C)c1=O in Hsc70 ATP site has 2.0%
Cc1cc(OCCNCCO)cc(C)c1Cl in Hsc70 ATP site has 7.7%
COc1ccc(CC(=O)Nc2ccc(-c3noc(-c4cccc(OC)c4)n3)cc2)cc1 in WNV NS2B-NS3 inh has -1.1
CCC(C)NC(=O)c1ccccc1NS(=O)(=O)c1ccc(OC)c(OC)c1 (stereo not given) in WNV NS2B-NS3 inh has 1.9
CCn1nccc1C(=O)Nc1ccc(S(=O)(=O)NC23CC4CC(CC(C4)C2)C3)cc1 in Hsc70 ATP site has -2.2%
O=C(C1CCCCC1)N1CCCc2ccccc21 in Hsc70 ATP site has 0.7%
O=C(OCC(=O)N1CCN(c2ccccc2)CC1)c1ccc2ncsc2c1 in WNV NS2B-NS3 inh has -0.81

Gathered by group, the entries above containing a nitro group on carbon
SMILES	Hsc70 ATP site	WNV NS2B-NS3 inh	MT1-MMP reporter
Cc1ccc(-n2c(C)c([N+](=O)[O-])c3ccc(O)c(CN(C)C)c32)cc1	1.6%	.	i
CC1CCN(c2ccccc2NC(=S)NC(=O)c2ccc(-c3cccc([N+](=O)[O-])c3)o2)CC1	-0.2%	.	i

Rows are unselected, and some 0.8% of all compounds hit somewhere here.
